TRPV1 potentiator: human TRPV1 potentiation; TRPV1-expressing cells, Fluo-8 calcium influx, capsaicin EC20 potentiation; host cell line not named in the record; control for the full effect not named in the record; 320,000 tested, 0.02% active; potentiation, % at 8.33 µM; Q8NER1; active means potentiation above 80%; inconclusive means 30% to 80%; inactive means below 30%; also: 0% is about no effect
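Fluo-8 calcium influx in TRPV1-expressing cells, kinetic read (ex 480/em 520 nm). Compound added and read 3 min for agonist activity, followed by capsaicin at EC20 final and 2 min further read for enhancement.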
PINK1 expr mod: changes PINK1 expression | 410,000 tested, 0.2% active | PINK1 immunofluorescence, high-content cytometry, 24 h | Potency, µM (highest dose often 76.6 µM), for the others: at the highest dose activation (PINK1 increase), actives largely listed as activators; active = well fitted activation curve with a large enough effect; inconclusive = small, poorly fitted or top-dose-only effect; inactive = flat fitted curve, though single readings scatter; cell line not stated here;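 also: potency is read from the fitted curve at half-maximal effect; % of control where 0% means no effect; nearly all actives have a fitted effect of over 65% in size; a mitochondrial uncoupler was the plate control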
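Stable cell line, 250 cells/well, 12 h attachment; compounds pinned at 5 concentrations, 24 h; CCCP control. Fixed with nuclear dye, primary antibodies 12 h at 10 degrees C, secondary plus cell stain; laser-scanning cytometer read.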
D2 potentiator: positive allosteric modulators of human D2 dopamine receptor; DiscoveRx D2 beta-arrestin cells, luminescence, 90 min; 100% = 57 uM dopamine signal; potentiation, % (no concentration beside the values); 360,000 tested, 0.23% active; P14416; active = potentiation of 50% or more; inconclusive = 30% to 50%; inactive = 30% or less;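 also: compound concentration not given in the record; tested on top of an EC20 dose of dopamine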
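PathHunter D2 cells, attached overnight at 37 deg C, received compound in DMSO plus dopamine at EC20 (50 nM final) for 90 min at 37 deg C. Beta-arrestin recruitment was read as luminescence after 1 h with detection reagent at ambient temperature.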
D2 agonist: agonists of human D2 dopamine receptor (beta-arrestin); activation, % (test concentration not listed); P14416; 360,000 tested, 0.084% active; DiscoveRx PathHunter D2 beta-arrestin, luminescence, 90 min; 100% = 57 uM dopamine signal; AID 624465; in the data active = activation above about 40%; inconclusive = about 15% to 40%; inactive = below about 15%; also: compound concentration not given in the record; the text of the record calls up to 30% inactive
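Agonist mode: compounds alone added to overnight-plated D2 PathHunter cells for 90 min at 37 C, with 57 uM final dopamine (EC100) defining full response. Beta-arrestin recruitment detected by chemiluminescent reagent, read after 1 h at ambient temperature.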
Six1-Eya2 inh: inhibitors of human Six1/Eya2 interaction. Q15475+O00167. AlphaScreen GST-Six1/His-Eya2 binding, biochemical; active compounds read low; control for the full effect not named in the record. activity change, % (test concentration not listed). 360,000 tested, 0.56% active. AID 651725; in the data active = activity change below about -65%; inconclusive = about -30% to -65%; inactive = above about -30%; also: % is scaled to controls: 0 for no effect and ±100 for the full control effect
Target sequence (O00167 whole entry, looked up): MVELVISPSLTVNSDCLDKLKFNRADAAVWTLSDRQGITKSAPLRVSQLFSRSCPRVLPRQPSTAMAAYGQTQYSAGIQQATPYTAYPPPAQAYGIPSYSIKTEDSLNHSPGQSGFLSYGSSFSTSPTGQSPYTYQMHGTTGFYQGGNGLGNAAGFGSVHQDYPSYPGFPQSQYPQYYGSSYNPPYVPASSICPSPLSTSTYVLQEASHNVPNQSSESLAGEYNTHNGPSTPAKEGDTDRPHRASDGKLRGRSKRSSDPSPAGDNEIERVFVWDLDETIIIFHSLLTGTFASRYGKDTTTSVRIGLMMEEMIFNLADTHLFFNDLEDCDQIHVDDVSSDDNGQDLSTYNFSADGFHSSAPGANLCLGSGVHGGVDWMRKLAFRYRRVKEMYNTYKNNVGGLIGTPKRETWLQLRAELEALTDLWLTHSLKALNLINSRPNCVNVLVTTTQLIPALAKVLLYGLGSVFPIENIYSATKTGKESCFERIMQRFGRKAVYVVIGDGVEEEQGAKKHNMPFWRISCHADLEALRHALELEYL
Target sequence (Q15475 whole entry, looked up): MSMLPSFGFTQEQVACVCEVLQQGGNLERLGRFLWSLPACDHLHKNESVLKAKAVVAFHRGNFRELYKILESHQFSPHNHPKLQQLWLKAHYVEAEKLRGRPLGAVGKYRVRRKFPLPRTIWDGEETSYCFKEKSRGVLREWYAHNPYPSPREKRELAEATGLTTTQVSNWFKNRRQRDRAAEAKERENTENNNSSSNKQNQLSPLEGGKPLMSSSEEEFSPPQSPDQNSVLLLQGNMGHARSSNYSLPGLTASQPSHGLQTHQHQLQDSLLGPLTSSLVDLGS
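Homogeneous AlphaScreen proximity assay pairing GST-Six1 with His-tagged Eya2 (added as 5X mix: 250 nM and 500 nM) in 50 mM Tris pH 8.0, 300 mM NaCl, 1 mM TCEP. Glutathione donor and nickel acceptor beads; 1 h, 37 °C, dark.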
Sfp PPTase inh: blocks B. subtilis Sfp PPTase activity; 310,000 tested, 3.5% active; Potency, µM, for the others: max response, negative = inhibition, usual class: inhibitors; AID 1490; Q9F4F7; Biochemical Sfp PPTase activity, qHTS; active = well fitted inhibition curve with a large enough effect; inconclusive = small, poorly fitted or top-dose-only effect, or another doubt; inactive = no such curve, though single readings can be large or run the other way;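 also: the enzyme is Sfp with the accession as filed and its product quenches rhodamine fluorescence; potency is read from the fitted curve at half-maximal effect; 0% = enzyme reaction without inhibitor and -100% = no enzyme wells; top concentration of the series not given in the record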
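Step 1, compound plus 15 nM Sfp-PPTase, 15 min, room temperature. Step 2, add rhodamine-CoA (5 uM) and BHQ-2-YbbR (12.5 uM). Step 3, read 525/598 nm fluorescence at 0 and 30 min.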
CtBP-E1A inh: CtBP/E1A binding inhibition | 340,000 tested, 0.49% active | AlphaScreen GST-E1A/His-CtBP binding, 1536-well; active compounds read low; control for the full effect not named in the record | activity change, % (concentration not given with the values) | AID 651724; in the data active means activity change below about -65%; inconclusive means about -30% to -65%; inactive means above about -30%; also: % is scaled to controls: 0 for no effect and ±100 for the full control effect
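Protein mix (5X: 125 nM each GST-E1A, His-CtBP) was incubated with pinned compound 2 h at 37 deg C in dark, in 50 mM Tris pH 8.0 buffer with 300 mM NaCl. Glutathione donor and nickel acceptor beads followed; AlphaScreen signal read after 1 h.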
Starred values were filed as active, the others as inactive; ? = inconclusive; · = no result given; & = joins results of further samples; [ ] = another dose, or the depositor's remark. Rows are unselected; overall some 3.7% were active at least once.

The opening 11 records, to show the layout:
SMILES	TRPV1 potentiator	PINK1 expr mod	D2 potentiator	D2 agonist	Six1-Eya2 inh	Sfp PPTase inh	CtBP-E1A inh
O=C(O)c1ccccc1C=NN1CCCCCC1	·	1.4%	-5.1	1.9	-5.3	·	4.8
Cc1[nH][nH]c(=O)c1C(c1c(C)[nH][nH]c1=O)c1cn(Cc2cccc3ccccc23)c2ccccc12	-1.1	8.2%	16.9	-1.7	-17.7	-15.4%	0.1
O=C1NC(NS(=O)(=O)c2ccccc2)(C(F)(F)F)C(=O)N1c1ccc(F)cc1 (stereo not given)	1.1	-0.6%&-1.1%	-3.4	-4.6	6.4	1.8%	-3.0
COC(=O)c1sccc1NC(=O)c1cc(-c2cccc(C)c2)nc2ccccc12	6.6	4.3%	2.2	-8.3	4.9	15.8µM*	-3.5
CCCCOc1ccc(/C=N/NC(=O)c2csc(C)c2C)cc1	1.1	0.7%	-12.3	-0.6	4.4	8.0%	11.4
COc1ccc(NC(=O)COc2ccc(C)c(C)c2)cc1S(=O)(=O)N1CCCCC1	18.9	1.8%	-2.0	-1.2	-21.2	·	-12.7
CN(Cc1ccc(Cl)cc1)C(=O)c1ccc2ccccc2n1	4.3	-2.3%	-6.7	-2.3	-7.4	6.3%	-13.3
CC(=O)N(Cc1ccccc1)c1nc(-c2ccccc2)cs1	-4.9	-1.7%	-12.7	-0.8	7.6	-13.2%	·
COc1ccc(NC(=O)C(Cl)=C(Cl)Cl)cn1	1.7	-1.6%	-2.7	4.6	1.8	7.8%	5.4
Cc1ccc(-n2c(CNC(=O)c3cccs3)nnc2SCC(=O)NO)cc1	21.4	0.4%	-6.2	-1.6	4.7	8.8%	-8.3
CCCCN1C(Nc2ccccc2)=NC[C@@H]1C	-34.2	1.3%	-0.4	-1.8	3.4	·	7.5

The whole of this part, from the start:
SMILES	TRPV1 potentiator	PINK1 expr mod	D2 potentiator	D2 agonist	Six1-Eya2 inh	Sfp PPTase inh	CtBP-E1A inh
O=C(O)c1ccccc1C=NN1CCCCCC1	·	1.4%	-5.1	1.9	-5.3	·	4.8
Cc1[nH][nH]c(=O)c1C(c1c(C)[nH][nH]c1=O)c1cn(Cc2cccc3ccccc23)c2ccccc12	-1.1	8.2%	16.9	-1.7	-17.7	-15.4%	0.1
O=C1NC(NS(=O)(=O)c2ccccc2)(C(F)(F)F)C(=O)N1c1ccc(F)cc1 (stereo not given)	1.1	-0.6%&-1.1%	-3.4	-4.6	6.4	1.8%	-3.0
COC(=O)c1sccc1NC(=O)c1cc(-c2cccc(C)c2)nc2ccccc12	6.6	4.3%	2.2	-8.3	4.9	15.8µM*	-3.5
CCCCOc1ccc(/C=N/NC(=O)c2csc(C)c2C)cc1	1.1	0.7%	-12.3	-0.6	4.4	8.0%	11.4
COc1ccc(NC(=O)COc2ccc(C)c(C)c2)cc1S(=O)(=O)N1CCCCC1	18.9	1.8%	-2.0	-1.2	-21.2	·	-12.7
CN(Cc1ccc(Cl)cc1)C(=O)c1ccc2ccccc2n1	4.3	-2.3%	-6.7	-2.3	-7.4	6.3%	-13.3
CC(=O)N(Cc1ccccc1)c1nc(-c2ccccc2)cs1	-4.9	-1.7%	-12.7	-0.8	7.6	-13.2%	·
COc1ccc(NC(=O)C(Cl)=C(Cl)Cl)cn1	1.7	-1.6%	-2.7	4.6	1.8	7.8%	5.4
Cc1ccc(-n2c(CNC(=O)c3cccs3)nnc2SCC(=O)NO)cc1	21.4	0.4%	-6.2	-1.6	4.7	8.8%	-8.3
CCCCN1C(Nc2ccccc2)=NC[C@@H]1C	-34.2	1.3%	-0.4	-1.8	3.4	·	7.5
O=C(c1ccco1)N1N=C(c2ccc3nccnc3c2)CC1c1ccccc1 (stereo not given)	2.1	-0.4%	-4.0	-3.8	-16.7	?	-23.2
COc1cc(/C=C2\N=C(c3ccccc3)OC2=O)ccc1OC(C)=O	16.5	1.0%	11.0	-1.8	4.6	14.1%	·
CCOC(=O)c1sc(NC(=O)CSc2nc3c(cc2C#N)CCCCC3)c(C#N)c1C	-0.9	1.0%	0.4	-0.5	2.4	-25.9%	3.7
Oc1ccc(N2CCN(C(=S)NCc3ccccc3)CC2)cc1	1.2	-1.5%	25.5	?	-14.5	?	-3.7
CCN(C(=O)c1cc(S(=O)(=O)N2CCc3ccccc32)cn1C)c1ccccc1	-6.3	-0.8%	0.9	3.6	-2.8	3.7%	-0.3
Cc1ccccc1NC(=O)c1ccc(CN(c2ccccc2)S(=O)(=O)c2ccccc2)cc1	-4.7	1.1%	6.8	-2.3	-3.4	-2.7%	-2.2
CCOc1ccc(OCC)c(NS(=O)(=O)c2cccc3nsnc23)c1	-0.8	2.8%	1.0	-0.8	-12.4	-8.5%	-8.5
Cn1c(=O)c(C(=O)NCc2ccc(Cl)cc2)c(O)c2ccccc21	-6.4	10.7%	-3.6	1.1	-0.5	20.7%	-2.3
O=C(CC1Nc2ccccc2NC1=O)Nc1ccccc1 (stereo not given)	13.3	1.1%	4.5	1.2	-12.3	1.0%	-3.0
CCCCC(CC(O)COCC(C)C)C(=O)NN (stereo not given)	13.2	1.9%	-1.9	-1.8	9.7	8.8%	20.0
CSc1nnc(-c2ccc(S(=O)(=O)N3CCCCC3)cc2)o1	6.2	0.9%	-3.5	-5.6	7.6	12.2%	2.8
COCCCNC(c1ccccc1)c1ccncc1 (stereo not given)	10.0	1.8%	8.0	-1.5	4.2	7.9%	3.6
COc1ccc(CCNCc2c(-c3ccccc3)n(C)c3ccccc23)cc1	-8.9	?	-20.4	-2.2	-8.8	79.4µM*	-20.4
C[C@H](CO)N1C[C@H](C)[C@@H](CN(C)S(=O)(=O)c2cccs2)Oc2ccc(NC(=O)Nc3ccccc3)cc2C1=O	·	-0.5%	·	0.3	-12.1	·	-6.6

Carrying on:
SMILES	TRPV1 potentiator	PINK1 expr mod	D2 potentiator	D2 agonist	Six1-Eya2 inh	Sfp PPTase inh	CtBP-E1A inh
CN(C)c1nc(-c2ccccc2)cc(C(F)(F)F)c1C#N	-0.7	1.3%	-38.7	-4.0	138.4	-13.0%	149.2
CC(C)(C)NC(=O)C(c1ccc(O)cc1)N(C(=O)CCC(=O)Nc1nccs1)c1ccc(F)cc1 (stereo not given)	-18.6	-3.5%	-0.2	4.5	3.9	19.2%	3.8
CCC(C)(C)c1ccc(OC(=O)c2cccnc2Cl)cc1	-7.8	?	-0.9	2.5	6.6	5.2%	47.0
N#CC1(NC(=O)COc2ccc3oc4ccccc4c3c2)CCCCC1	11.1	-2.5%	-24.0	-1.4	0.0	-7.2%	6.8
Cc1cc(Oc2nc3ccccn3c(=O)c2/C=C(\C#N)C(=O)NC2CCS(=O)(=O)C2)ccc1Cl (stereo not given)	?	5.6%	-2.9	-3.1	-7.6	-4.6%	-27.3
O=C(CSc1nnc(CNc2ccc(Cl)cc2)n1Cc1ccccc1)NCc1ccco1	-18.4	-1.4%	-6.5	-3.2	-5.7	-3.6%	-14.9
COc1cc(OC)cc(-c2c(-c3cccs3)c3cc(-c4ccc5cc[nH]c5c4)ccc3n2C)c1	-1.9	2.2%	12.4	3.7	9.5	·	-18.0
CC1CCCN(C(=O)COc2ccc3c(c2)OCO3)C1 (stereo not given)	-22.7	-0.9%	-19.4	-1.2	3.5	16.4%	-7.3
CCCCOc1ccc(Cl)cc1CSc1nncn1N	-3.5	16.0%[38.3 µM]	-3.8	1.6	-0.4	3.2%	1.9
CC1(C)CC(NC(=O)COc2ccc([N+](=O)[O-])cc2)CC(C)(C)N1	2.8	-0.2%	1.9	2.8	10.0	11.6%	6.0
CC1CCN(CCCNC(=O)CN2C(=O)CSc3ccc(S(=O)(=O)N4CCC(C)CC4)cc32)CC1	4.4	-1.3%&0.3%	-18.1	-5.7	0.5	10.2%	·
CCCCCN=C(C)c1c(O)c2ccccc2oc1=O	-6.5	3.8%	-12.5	0.7	10.2	-9.6%	11.0
Cc1cc(NS(=O)(=O)c2ccc(NS(=O)(=O)c3ccc(Br)cc3)cc2)no1	0.4	1.5%	-5.9	-1.5	-0.8	4.1%	-3.0
Cc1cc(C(=O)CN2C(=O)c3ccccc3C2=O)c(C)n1C1CC1	11.3	5.4%[38.3 µM]	-8.1	0.4	0.1	-23.6%	1.8
Cc1cccc(NC(=O)c2cccc(S(=O)(=O)N3CCc4ccccc4C3)c2)n1	-10.3	-0.5%	-14.5	-0.9	2.8	·	5.7
N/C(=N\OC(=O)/C=C/c1ccccc1)c1cccnc1	-6.1	5.3%	8.2	?	-1.0	4.3%	·
NC(=O)C(c1ccc(F)cc1)c1ccc(C(=O)c2ccccc2)cc1 (stereo not given)	-8.7	0.0%	-20.9	-0.6	1.0	7.2%	-3.0
CC(C)(C)c1nc(N)nc(=O)[nH]1	?	1.5%	-14.2	-4.1	-4.0	20.0%	·
CC(Oc1ccc2c(-c3ccccc3)cc(=O)oc2c1)C(=O)NC(Cc1c[nH]c2ccc(O)cc12)C(=O)O (stereo not given)	7.2	-0.4%	-0.3	1.1	6.7	-1.3%	-22.3
CCOC(=O)c1ncn2c1C(=O)OC2(C)C	-10.3	1.1%	7.1	-0.9	-8.0	?	-11.4
CC(C)CNC(=O)CCc1nc(-c2ccccc2)no1	25.9	1.7%	-1.8	-7.1	14.7	7.8%	0.8
CCc1cc2cccc(C)c2nc1SCC(=O)NC1CCCC1	14.9	0.8%	-6.4	-4.0	-9.6	6.3%	3.0
CCOc1ccc(/C=N/NC(=O)NC23CC4CC(CC(C4)C2)C3)cc1O	18.6	0.6%	-0.4	3.2	-6.5	-10.9%	-0.5
CC(=O)Nc1ccc(SCC(=O)OCC(=O)NC(=O)NCCC(C)C)cc1	2.6	-0.9%	-3.5	-4.3	11.6	1.3%	-6.9

Entries of single compounds from above:
CCCCOc1ccc(Cl)cc1CSc1nncn1N is listed with TRPV1 potentiator = -3.5; PINK1 expr mod = 16.0%[38.3 µM]; D2 potentiator = -3.8; D2 agonist = 1.6; Six1-Eya2 inh = -0.4; Sfp PPTase inh = 3.2%; CtBP-E1A inh = 1.9
CC1CCN(CCCNC(=O)CN2C(=O)CSc3ccc(S(=O)(=O)N4CCC(C)CC4)cc32)CC1 is listed with TRPV1 potentiator = 4.4; PINK1 expr mod = -1.3%&0.3%; D2 potentiator = -18.1; D2 agonist = -5.7; Six1-Eya2 inh = 0.5; Sfp PPTase inh = 10.2%; CtBP-E1A inh = ·
